ClpP mod: qHTS Assay for Activators of ClpP | ATP-dependent Clp protease proteolytic subunit (Bacillus subtilis (strain 168)), P80244 | purified B. subtilis ClpP, FRET peptide cleavage, 20 min | Potency, µM (top dose mostly 57.5 µM), without a hit: at the top dose activity change, negative = active | actives 1.9% (n = 340,000) | AID 651965, 2013; active = well fitted falling curve with a large enough effect; inconclusive = small, poorly fitted or top-dose-only effect; inactive = no such curve, though single readings can be large or run the other way; note: potency is the fitted concentration of half-maximal effect; the source files actives as falling curves though it sought activators and does not explain the sign; nearly all actives have a fitted effect of over 65% in size; many hits overshoot -100%
Target sequence (P80244 whole entry, looked up): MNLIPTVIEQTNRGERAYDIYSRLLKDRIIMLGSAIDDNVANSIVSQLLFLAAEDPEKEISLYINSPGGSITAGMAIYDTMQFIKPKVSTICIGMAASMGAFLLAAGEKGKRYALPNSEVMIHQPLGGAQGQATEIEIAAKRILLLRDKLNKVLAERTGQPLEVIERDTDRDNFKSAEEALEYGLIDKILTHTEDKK
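Buffer: 100 mM Tris/HCl pH8, 100 mM KCl, 0.05% low protease BSA, 2.5% glycerol, 0.01% Tween-20. ClpP 10 microg/mL final; 20 min RT; delta FRET normalized to ADEP and DMSO controls.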
gsp ag: qHTS for Agonist of gsp, the Etiologic Mutation Responsible for Fibrous Dysplasia/McCune-Albright Syndrome: qHTS; gsp mutant cells, cAMP HTRF, 30 min; control for the full effect not named in the record; Potency, µM (titrated, usually from 76.9 µM), inactives show at the top dose activation (cAMP increase), actives largely listed as activators; actives 0.13% (n = 340,000); active = well fitted activation curve with a large enough effect; inconclusive = small, poorly fitted or top-dose-only effect, or another doubt; inactive = no such curve, though single readings can be large or run the other way; cell line not stated here;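 note: phosphodiesterase inhibitor Ro 20-1724 added with compounds to block cAMP breakdown; potency is the fitted concentration of half-maximal effect; nearly all actives have a fitted effect of over 60% in size; about a fifth of the inactives were tested at one dose only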
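Cells in DMEM/10% FBS with G418 were pretreated with compounds in DMSO plus […] (300 uM stock) for 30 min at 37C. cAMP was measured by HTRF (cAMP-d2 plus anti-cAMP antibody-K) after 30 min at room temperature.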
D2 ag: Beta-Arrestin HTS for Positive Allosteric Modulators of the Human D2 Dopamine Receptor: Agonists; actives 0.084% (n = 360,000); D(2) dopamine receptor (Homo sapiens), P14416; DiscoveRx PathHunter D2 beta-arrestin, luminescence, 90 min; 100% = 57 uM dopamine signal; AID 624465, 2012; activation, % (test concentration not listed); in the data active = activation above about 40%; inconclusive = about 15% to 40%; inactive = below about 15%; note: compound concentration not given in the record; the text of the record calls up to 30% inactive
Target sequence (P14416 whole entry, looked up): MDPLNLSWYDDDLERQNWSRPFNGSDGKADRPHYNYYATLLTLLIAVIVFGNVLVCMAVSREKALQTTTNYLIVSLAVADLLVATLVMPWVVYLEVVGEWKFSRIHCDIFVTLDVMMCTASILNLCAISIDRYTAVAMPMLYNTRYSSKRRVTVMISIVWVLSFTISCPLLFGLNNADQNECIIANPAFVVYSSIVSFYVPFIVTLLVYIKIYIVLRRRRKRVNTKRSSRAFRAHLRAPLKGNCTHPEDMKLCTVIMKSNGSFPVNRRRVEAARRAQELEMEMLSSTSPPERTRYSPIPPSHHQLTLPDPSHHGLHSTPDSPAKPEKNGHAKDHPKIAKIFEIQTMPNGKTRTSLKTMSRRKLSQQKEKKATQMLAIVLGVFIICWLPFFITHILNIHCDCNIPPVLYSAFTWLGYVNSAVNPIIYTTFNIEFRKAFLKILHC
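Agonist mode: compounds alone added to overnight-plated D2 PathHunter cells for 90 min at 37 C, with 57 uM final dopamine (EC100) defining full response. Beta-arrestin recruitment detected by chemiluminescent reagent, read after 1 h at ambient temperature.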
gsp antag: qHTS for Antagonists of gsp, the Etiologic Mutation Responsible for Fibrous Dysplasia/McCune-Albright Syndrome: qHTS. actives 0.4% (n = 340,000). AID 624288, 2012. Potency, µM (doses to about 76.9 µM), for the others: at the top dose activity change, negative = inhibition, usual class: inhibitors. gsp-mutant cells, cAMP HTRF, 30 min; control for the full effect not named in the record; active = falling curve of any shape with a large fitted effect; inconclusive = falling curve, mostly with a smaller effect; inactive = flat or rising curve; cell line not stated here;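 note: intracellular cAMP measured with PDE inhibitor Ro 20-1724 present during compound exposure; potency is the fitted concentration of half-maximal effect; % is set by controls: 0 for no effect and ±100 for the full control effect; nearly all actives have a fitted effect of over 65% in size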
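HTRF cAMP read-out (cAMP-d2 plus anti-cAMP antibody-K in lysis buffer, 30 min RT). Before lysis, cells are exposed to compounds with […] for 30 min at 37C in DPBS containing Ca/Mg, BSA and Tween 20.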
Menin-MLL FL inh: qHTS Assay for Inhibitors Targeting the Menin-MLL Interaction in MLL Related Leukemias: Competition With Fluorescein Labeled MLL-derived Peptide. Fluorescence polarization, fluorescein-MLL peptide displacement from menin. FP activity change, % at 61.4 µM. 290,000 tested, under 10 active; inconclusive = falling polarisation curve, or a change in total fluorescence; inactive = total fluorescence flat and polarisation flat or rising; no compound was filed as active; the % refers to the polarisation; negative = inhibition;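 note: % of control where 0% means no effect; inhibitors lower the polarisation; unlabelled MLL peptide was the positive control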
Sfp inh: qHTS Assay for Inhibitors of Bacillus subtilis Sfp phosphopantetheinyl transferase (PPTase); 4'-phosphopantetheinyl transferase ffp (Bacillus subtilis), Q9F4F7; Biochemical Sfp PPTase activity, qHTS; Potency, µM, without a hit: max response, negative = inhibition, hits mostly inhibitors; actives 3.5% (n = 310,000); active = well fitted inhibition curve with a large enough effect; inconclusive = small, poorly fitted or top-dose-only effect, or another doubt; inactive = no such curve, though single readings can be large or run the other way;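 note: the enzyme is Sfp with the accession as filed and its product quenches rhodamine fluorescence; potency is the fitted concentration of half-maximal effect; 0% = enzyme reaction without inhibitor and -100% = no enzyme wells; top concentration of the series not given in the record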
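Step 1, compound plus 15 nM Sfp-PPTase, 15 min, room temperature. Step 2, add rhodamine-CoA (5 uM) and BHQ-2-YbbR (12.5 uM). Step 3, read 525/598 nm fluorescence at 0 and 30 min.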
PINK1 expr mod: A Quantitative High throughput Screen to Identify Chemical Modulators of PINK1 Expression; PINK1 immunofluorescence, high-content cytometry, 24 h; AID 624263, 2012; actives 0.2% (n = 410,000); Potency, µM (top dose mostly 76.6 µM), inactives show at the highest dose activation (PINK1 increase), usual class: activators; active = well fitted activation curve with a large enough effect; inconclusive = small, poorly fitted or top-dose-only effect; inactive = flat fitted curve, though single readings scatter; cell line not stated here;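 note: potency is the fitted concentration of half-maximal effect; % of control where 0% means no effect; nearly all actives have a fitted effect of over 65% in size; a mitochondrial uncoupler was the plate control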
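A stable cell line was treated with compounds at 5 concentrations for 24 hours, with CCCP as control. PINK1 levels and mitochondrial localization were measured by immunofluorescence with mitochondrial, cell and nuclear markers after fixation, read by laser-scanning cytometry.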
The depositor's hits bear a star; [ ] = dose if it differs, or a comment. Outcome played no part in choosing rows. About 5.1% of those tested had a hit in this group.

For C/C(N)=C(/C#N)C(=O)COC(=O)c1ccc(C#N)cc1 the results were gsp ag 0%[15.4 µM], D2 ag -2.3, gsp antag -4%, Menin-MLL FL inh -1.3, Sfp inh 10% and PINK1 expr mod 0.2%.
For CCCCn1c(N)c(N(CC)C(=O)c2cccc(F)c2)c(=O)[nH]c1=O the results were gsp ag inconclusive, D2 ag -5.0, gsp antag 10%, Menin-MLL FL inh -1.0, Sfp inh -8% and PINK1 expr mod 0.7%.
O=C(NC1CC1)C1CCN(c2ccc(S(=O)(=O)N3CCOCC3)cc2)CC1 was read as ClpP mod 1.8%, gsp ag inconclusive, D2 ag -1.6, gsp antag -8%, Menin-MLL FL inh -0.2, Sfp inh 10% and PINK1 expr mod 2.2%[38.3 µM].
CCCCC(CC)CNC(=O)CCS(=O)(=O)c1cccc2nonc12 (stereo unspecified) was read as ClpP mod 0.7%, gsp ag 11%[15.4 µM], D2 ag -0.2, gsp antag 6%, Menin-MLL FL inh 2.8, Sfp inh 2% and PINK1 expr mod -1.5%.
For CCCCNC(=O)c1nn2c(C(F)(F)F)cc(-c3ccccc3)nc2c1Br the results were gsp ag inconclusive, D2 ag -2.9, gsp antag -18%, Menin-MLL FL inh -0.2, Sfp inh 19% and PINK1 expr mod 7.0%.
For CC(=O)c1cc(CN2CCN(CCc3ccccc3)C(CCO)C2)cs1 (stereo unspecified) the results were ClpP mod -4.6%, gsp ag -9%[15.4 µM], D2 ag 2.5, gsp antag 8%, Menin-MLL FL inh -0.5, Sfp inh 9% and PINK1 expr mod 0.4%.
COc1cc(/C=C/C(=O)Nc2cccc(S(=O)(=O)N3CCOCC3)c2)ccc1OCC#N was read as ClpP mod -11%, gsp ag -47%[inhibitor], D2 ag 1.5, gsp antag -16% and PINK1 expr mod 1.9%.
Screening OC[C@@H]1CN(Cc2ccccc2)C[C@H](n2cnc3c(Nc4ccccc4)ncnc32)O1 returned ClpP mod inconclusive, D2 ag 3.7 and PINK1 expr mod 4.1%.
COc1cccc(/C=C/C(=O)OCC(=O)c2ccc3c(c2)NC(=O)CO3)c1 was read as ClpP mod -10%, gsp ag -90%[inhibitor], D2 ag -0.1, gsp antag -6% and PINK1 expr mod -0.4%.
For O=C(OCc1ccc([N+](=O)[O-])cc1)c1ccc(N2CCCC2)c([N+](=O)[O-])c1 the results were ClpP mod -0.1%, gsp ag -45%[inhibitor], D2 ag 3.0, gsp antag 12%, Menin-MLL FL inh 1.6, Sfp inh 5% and PINK1 expr mod 23%.
`CC(C)n1nc(C(=O)Oc2cccc(Cl)c2Cl)c2ccccc2c1=O` gave ClpP mod 0.4%, gsp ag 0%, D2 ag -5.0, gsp antag -11%, Menin-MLL FL inh -0.5, Sfp inh -12% and PINK1 expr mod 17%.
Screening COc1cccc(-c2cnc3c(NC(C)=O)cc(-c4ccc(C(=O)N5CCOCC5)cc4)cn23)c1 returned ClpP mod inconclusive, D2 ag 1.7 and PINK1 expr mod 8.3%.
O=C(CN(C(=O)CSc1nc2ccccc2o1)c1cccc(F)c1)NC1CCCCC1 was read as ClpP mod 1.2%, gsp ag inconclusive, D2 ag -0.8, gsp antag -7%, Menin-MLL FL inh -0.7 and Sfp inh 6%.
CCOC(=O)C1CCCN(CCC(=O)Nc2cccc(F)c2)C1 (stereo unspecified) was read as ClpP mod 0.8%, gsp ag -2%, D2 ag -0.1, gsp antag 2%, Menin-MLL FL inh 1.0, Sfp inh 21% and PINK1 expr mod 2.8%[38.3 µM].
`CCC1Oc2ccccc2N(Cc2ccccc2C)C1=O` (stereo unspecified) gave ClpP mod -2.6%, gsp ag 0%, D2 ag -0.4, gsp antag -28%, Menin-MLL FL inh 1.2, Sfp inh -3% and PINK1 expr mod inconclusive.
Screening COc1cc2cc3c(N)c(C(=O)Nc4sc(C)c(C)c4C#N)sc3nc2cc1OC returned ClpP mod -2.5%, gsp ag -1%, D2 ag -4.7, gsp antag -4%, Menin-MLL FL inh inconclusive, Sfp inh -20% and PINK1 expr mod 0.0%[38.3 µM].
For OCCC1CN(CCCc2ccccc2)CCN1Cc1ccccc1 (stereo unspecified) the results were gsp ag 19%[15.4 µM], D2 ag -1.3, gsp antag 8%, Menin-MLL FL inh 3.9, Sfp inh 1% and PINK1 expr mod -0.9%.
O=C(NCCOc1ccccc1)C1CCC(=O)N(Cc2ccc(Cl)cc2)C1 (stereo unspecified) was read as ClpP mod -1.5%, gsp ag 12%, D2 ag 0.5, gsp antag 3%, Sfp inh 8% and PINK1 expr mod 2.8%.
For O=C(NC(=S)Nc1ccccc1N1CCCC1)c1ccc(F)cc1 the results were ClpP mod -1.0%, gsp ag -25%, D2 ag -5.3, gsp antag -15%, Menin-MLL FL inh 0.3, Sfp inh inconclusive and PINK1 expr mod 7.8%.
Screening CC(=O)c1ccc(OCCCC(=O)Nc2cccc(S(=O)(=O)N3CCCCCC3)c2)cc1 returned ClpP mod 0.2%, gsp ag -1%[15.4 µM], D2 ag -0.2, gsp antag -13% and PINK1 expr mod 3.2%.
For COc1ccc(NS(=O)(=O)c2ccc(C(=O)OC(C)C(=O)N3CCOCC3)cc2)cc1 (stereo unspecified) the results were ClpP mod 0.5%, gsp ag -7%, D2 ag -0.3, gsp antag 4%, Sfp inh 8% and PINK1 expr mod 2.7%.
Cc1ccc(Cn2nnc3c(=O)[nH]c(C4CCN(S(=O)(=O)c5ccc(C)cc5)CC4)nc32)cc1 was read as ClpP mod -2.5%, gsp ag 2%, D2 ag -0.8, gsp antag 0%, Menin-MLL FL inh 0.5, Sfp inh 1% and PINK1 expr mod -2.8%[38.3 µM].
Screening CCCCc1ccc(NC(=S)N2CCN(C(=O)OCC)CC2)cc1 returned gsp ag -11%, D2 ag 8.0, gsp antag 6%, Menin-MLL FL inh -0.9, Sfp inh 13% and PINK1 expr mod 0.9%.
`CCC(=O)c1cn(CC(=O)Nc2cccc(C)c2C)c2ccccc12` gave ClpP mod -3.4%, gsp ag 0%[15.4 µM], D2 ag 0.9, gsp antag 5%, Menin-MLL FL inh -0.7, Sfp inh 9% and PINK1 expr mod 7.4%.
Cc1cc(C)nc(SCC(=O)O)n1 was read as ClpP mod 1.1%, gsp ag inconclusive, D2 ag -0.4, gsp antag 0%, Menin-MLL FL inh -1.6, Sfp inh 19% and PINK1 expr mod 0.3%.
For O=C(COc1ccc(C(=O)c2ccccc2)cc1)Nc1cccnc1 the results were gsp ag -3%[15.4 µM], D2 ag -0.5, gsp antag inconclusive, Menin-MLL FL inh 0.0, Sfp inh 13% and PINK1 expr mod 1.2%.
Cc1ccccc1OCc1nnc(SCc2nc3ccccc3c(=O)[nH]2)n1C was read as gsp ag inconclusive, D2 ag -2.8, gsp antag 2%, Menin-MLL FL inh -2.2, Sfp inh 6% and PINK1 expr mod -1.7%.
O=C1c2ccccc2C(=O)N1CC1c2ccccc2CCN1C(=O)CN1CCOCC1 (stereo unspecified) was read as gsp ag 1%[15.4 µM], D2 ag -0.5, gsp antag -1%, Menin-MLL FL inh -0.9, Sfp inh 12% and PINK1 expr mod 0.9%.
Screening CCC(=O)Nc1cc(C(=O)OCc2ccc(C(=O)Oc3ccccc3)cc2)ccc1C returned ClpP mod -1.4%, gsp ag 9%, D2 ag -5.1, gsp antag 16%, Menin-MLL FL inh 1.1, Sfp inh -4% and PINK1 expr mod 1.5%.
CCOc1ccccc1C(=O)N[C@H](C(=O)Nc1nc2c(s1)CCCC2)C(C)C was read as gsp ag -12%, D2 ag -0.9, gsp antag -6%, Menin-MLL FL inh 7.9, Sfp inh -4% and PINK1 expr mod 17%.
Screening COc1ccc(CN2CCN(C(=O)Cn3nc(C)n4cccc4c3=O)CC2)c(OC)c1OC returned ClpP mod 1.6%, gsp ag -32%[inhibitor], D2 ag -3.8, gsp antag 6%, Sfp inh 24% and PINK1 expr mod 0.3%.
Cc1ccc(C(=O)NCCOC23CC4CC(CC(C4)C2)C3)cc1 was read as ClpP mod -1.6%, gsp ag -19%, D2 ag -1.2, gsp antag -3%, Menin-MLL FL inh -0.7 and Sfp inh 0%.
Screening Cc1ccccc1S(=O)c1ccccc1C(=O)O (stereo unspecified) returned gsp ag -24%, D2 ag 1.0, gsp antag -2%, Menin-MLL FL inh -1.3, Sfp inh -30% and PINK1 expr mod 0.6%.
`CN(Cc1ccccc1F)C(=O)CCNC(=O)c1ccc(C(C)(C)C)cc1` gave ClpP mod 0.6%, gsp ag -8%, D2 ag -6.3, gsp antag -12% and PINK1 expr mod 1.1%.
For c1ccc(Cn2nnc3c(N4CCOCC4)ncnc32)cc1 the results were ClpP mod -0.4%, gsp ag 6%, D2 ag -9.4, gsp antag 10%, Menin-MLL FL inh -1.0, Sfp inh 1% and PINK1 expr mod -0.7%.
For Cn1nc(C(=O)Nc2ccc(Cl)cc2)cc1C(=O)Nc1ccc(Cl)cc1 the results were ClpP mod -5.9%, gsp ag 10%, D2 ag -2.6, gsp antag 17%, Menin-MLL FL inh 6.9, Sfp inh 10% and PINK1 expr mod 0.1%.
Screening CCOC(=O)c1oc2cccc(O)c2c1CN(Cc1ccccc1)C(C)=O returned ClpP mod -1.8%, gsp ag inconclusive, D2 ag -2.4, gsp antag -3%, Menin-MLL FL inh -1.1, Sfp inh 16% and PINK1 expr mod 0.7%.
Cc1oc(-c2ccc(Cl)cc2)nc1CS(=O)CC(=O)NCc1ccco1 (stereo unspecified) was read as gsp ag -18%, D2 ag 0.6, gsp antag -1%, Menin-MLL FL inh -2.1, Sfp inh 12% and PINK1 expr mod -1.0%.
CCOC(=O)C1=NN(c2cccc(C)c2)C2(S1)SC(C(C)=O)=C(C)N2c1ccccc1 (stereo unspecified) was read as ClpP mod -0.6%, gsp ag 23%, D2 ag -0.3, gsp antag 6%, Menin-MLL FL inh 1.6 and Sfp inh -4%.

Compound activity deposited in PubChem BioAssay by National Center for Advancing Translational Sciences (NCATS).
